AF4-AF9 inh: inhibitors of AF4 peptide binding to AF9, primary screen, biochemical, AlphaScreen, biotin-AF4 peptide, FLAG-AF9, single point. inhibition, % at 10 µM. 0.47% of 350,000 active. AID 651704, 2012;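 active = every replicate reaching a set inhibition limit, whatever the replicate mean, cut at about 25% in these data; inconclusive = mean inhibition reaches that limit but some replicates miss it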;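 also: 0% = plate neutral control median and 100% = total signal loss; the record names both 10 and 1 µM as test concentration; the first replicate is given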
Target sequence (P42568 whole entry, looked up): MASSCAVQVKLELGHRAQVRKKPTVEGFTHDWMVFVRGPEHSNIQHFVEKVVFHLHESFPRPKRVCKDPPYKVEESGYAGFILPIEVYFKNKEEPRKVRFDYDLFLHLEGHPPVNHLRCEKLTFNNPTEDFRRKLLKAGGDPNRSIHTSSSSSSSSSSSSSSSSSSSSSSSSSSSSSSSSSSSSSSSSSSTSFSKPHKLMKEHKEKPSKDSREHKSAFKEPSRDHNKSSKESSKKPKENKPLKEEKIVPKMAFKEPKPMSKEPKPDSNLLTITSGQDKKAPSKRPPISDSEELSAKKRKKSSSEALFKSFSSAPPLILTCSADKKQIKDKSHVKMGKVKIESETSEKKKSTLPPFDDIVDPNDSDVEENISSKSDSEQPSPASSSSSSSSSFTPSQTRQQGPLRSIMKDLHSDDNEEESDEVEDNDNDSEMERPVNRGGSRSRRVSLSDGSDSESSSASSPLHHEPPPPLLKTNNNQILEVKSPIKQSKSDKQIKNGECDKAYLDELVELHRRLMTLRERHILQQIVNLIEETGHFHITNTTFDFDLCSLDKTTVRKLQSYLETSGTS
Beta cell apopt: inhibitors of cytokine-induced beta cell apoptosis, primary screen, luminescence; INS-1E cytokine-induced death, ATP luminescence, 48 h; percent of positive-control rescue, neutral wells zero; protection from apoptosis, % (concentration not given with the values); 0.8% of 300,000 active; AID 435005, 2010;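 active = all replicates at 75% or more, or half of them and the mean; inconclusive = half reach 75% but not the mean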;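 also: 0% = cytokine-treated negative control wells and 100% = positive control rescue; higher means more ATP so stronger rescue from cytokine killing; wells of about 40 µL received 100 nL stock; the first replicate is given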
Vif TR-FRET: inhibitors of Vif binding to APOBEC3G peptide, primary screen, biochemical, TR-FRET, GST-Vif 1-94, biotin-A3G peptide, dose response retest (AID 1117319); Virion infectivity factor (Human immunodeficiency virus type 1 group M subtype B (isolate …; TR-FRET GST-Vif / biotin-A3G peptide binding; higher % means a stronger effect; test concentration not given here; strong numbers were not always called active; inhibition, %, or IC50 in µM where a hit was titrated; 0.57% of 260,000 active;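 active = above the screen mean plus three standard deviations and confirmed in dose response; inconclusive = results disagree or hit not tested in dose response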;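 also: Vif residues 1-94 fused to GST binding biotinylated APOBEC3G peptide 110-148; 0% = full assay without inhibitor and 100% = GST in place of GST-Vif; retest series ran down from 100 µM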
Ecoli rRNA inh: reduced GFP signal of wild-type E. coli, primary screen, bacterial rRNA inhibitor project, GFP/RFP fluorescence, OD600, single point. E. coli WT GFP vs humanized-ribosome RFP mutants, 24 h; active compounds read low; DMSO median 0, no signal -100. GFP signal change (wild-type ribosome), % (no concentration beside the values). 1.6% of 350,000 active;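 active = significant combined selectivity score with lowered wild-type GFP, culture density cut under 30%, mutant RFP and density less affected; inactive = any of these conditions unmet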; also: one replicate is shown; some compounds called inactive have numbers as strong as hits
RanGTP-Impb inh: inhibitors of RanGTP-importin-beta interaction, primary screen, biochemical, FRET, CFP-Ran, YFP-importin-beta, homogeneous; Ran GTPase (GTP-bound) - importin-beta complex; cell-free CFP-Ran/YFP-importin-beta FRET ratio; inhibition, % (no concentration beside the values); 1.1% of 300,000 active;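 active = most replicates above 15%; inconclusive = exactly half above 15%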;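 also: 0% = DMSO wells and 100% = Ran loaded with GDP instead of GTP; wells of about 40 µL received 100 nL stock; the first replicate is given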
Calb FLC: C. albicans growth inhibition with fluconazole, primary screen, CaCi-2 strain, Alamar Blue fluorescence; 0.57% of 300,000 active; C. albicans CaCi-2 (fluconazole-resistant clinical isolate) + fluconazole, 48 h; growth inhibition, % (test concentration not listed); AID 1979, 2009;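 active = most replicates above 75%; inconclusive = exactly half above 75%; inactive = most below 75%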;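 also: all wells also contain fluconazole at 8 µg/ml as a sub-toxic cotreatment; 0% = median of DMSO wells and 100% = median of geldanamycin control wells; wells of about 8 µL received 7.5 nL stock; the first replicate is given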
T cruzi inh: inhibitors of intracellular T. cruzi growth, primary screen, luminescence, NIH3T3 host cells | inhibition, % (test concentration not listed) | AID 1885, 2009 | 1.4% of 300,000 active | T. cruzi beta-gal in NIH3T3, 90 h;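 active = mean inhibition across valid replicates above about 55%, limit read from the data; inconclusive = mean below that limit but half or more replicates reach it; inactive = mean below it, under half of replicates reach it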;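 also: signal also drops with host cell toxicity which is not excluded here; 0% = plate median of DMSO wells and 100% = zero luminescence signal; higher percent means less beta-gal luminescence so fewer parasites; stock transfer was 50 nL into about 50 µL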
A1 inh: caspase 3/7 activation in MEF A1-2A-BIM cells, primary screen, A1 inhibitor project, cell-based, luminescence, HTS | Caspase-Glo 3/7 luminescence, 3 h; percent of clofoctol response, vehicle zero | caspase activation, % (no concentration beside the values) | 0.066% of 330,000 active;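 active = over half of replicate activation scores above 10%, or exactly half above 10 with the replicate mean above 10; inconclusive = replicate mean below 10 yet half the replicates above 10; inactive = over half of replicates below 10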;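 also: wells of about 30 µL received 50 nL stock; many hits fall short of the cut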
Ecoli rRNA inh OD600: second read-out of Ecoli rRNA inh, no call of its own (marks repeat the call); OD600 change, %; measured here: OD600 growth;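 optical density of the mix in the first replicate; 0 = DMSO median and -100 = no signal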
Ecoli rRNA inh RFP: recorded beside Ecoli rRNA inh, whose call it bears; RFP signal change, %; measured here: RFP humanized mutant strains;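 first replicate; 0 = DMSO median and -100 = no signal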
An asterisk follows results filed as active; ? = inconclusive; . = not tested or not shown; & = joins results of further samples. A portion of the library; the hit share may differ from the screen's.

SMILES	AF4-AF9 inh	Beta cell apopt	Vif TR-FRET	Ecoli rRNA inh	Ecoli rRNA inh OD600	Ecoli rRNA inh RFP	RanGTP-Impb inh	Calb FLC	T cruzi inh	A1 inh
CCOc1ccc(NC(=O)C2CCN(S(=O)(=O)c3ccc4c(c3)NC(=O)C(C)S4)CC2)cc1 (stereo unspecified)	-0.4	5.7	.	7.1	0.0	2.8	-1.7	-3.5	-33.8	1.9
Cc1ccc2nc(NC(=O)COC(=O)c3ccccn3)sc2c1	0.6	1.4	4.3%	-4.1	-5.3	-0.1	1.4	3.7	-3.6	-4.7
CC(Oc1ccccc1Cl)C(=O)N1CCCN(C)CC1 (stereo unspecified)	0.2	-5.6	.	12.1	16.0	2.0	.	.	1.6	-0.4
COc1ccccc1CN(C)C(=O)c1ccc2c(c1)NC(=O)CS2	.	-5.0	-2.6%	.	.	.	0.9	4.6	5.4	-0.7
COc1cccc(C(=O)N(c2ccc(OC)cc2OC)C2C=CS(=O)(=O)C2)c1 (stereo unspecified)	?	3.1	7.1%	8.2	0.3	5.0	-2.6	27.4	-18.9	0.0
CO/N=C(/CN1CCCCC1)c1ccc(Cl)cc1	0.1	-2.4	.	0.6	3.3	-2.1	-4.2	2.4	-9.7	1.3
COC(=O)c1ccccc1NC(=O)c1ccccc1NS(C)(=O)=O	.	-3.6	-3.2%	.	.	.	-5.3	1.4	-15.2	0.1
Cc1ccc(N2CC(NC(=O)C(=O)c3c(C)[nH]c4ccccc34)CC2=O)cc1 (stereo unspecified)	0.1	1.0	-4.0%	-3.3	-3.7	-1.4	8.3	.	-3.8	0.5
COc1ccccc1/C=C/C(=O)NCC(=O)N/N=C/c1ccc2c(c1)OCO2	-2.0	-3.7	15.0%	4.0	-2.2	0.4	-5.2	2.9	19.3	0.0
Cc1ccc2nc(Cl)c(-c3ccccc3)cc2c1	-1.6	.	.	-39.7	-62.9	-9.7	-1.1	0.4	-4.8	0.0
CCn1ccnc1CN1CCN(CC=C(C)C)C(CCO)C1 (stereo unspecified)	-6.8	-0.9	-3.4%	3.4	3.4	-4.0	1.5	-12.0	27.9	1.7
O=C(CN1CCCCC1)N1CCCc2c1c(=O)oc1ccc(OCc3ccccc3)cc21	.	-0.6	-2.0%	.	.	.	0.8	?	23.1	1.2
CCNC(=O)COC(=O)c1cc(S(=O)(=O)N2CCCCC2)ccc1C	0.9	-2.9	-5.8%	6.5	-1.7	-8.4	3.0	-5.2	-7.2	0.9
CCN(CC)S(=O)(=O)c1ccc2c(c1)c(=O)c(C(=O)NCCCN(C)c1ccccc1)cn2C	.	13.7	-5.3%	.	.	.	-1.8	-5.6	21.0	0.5
CSc1ccc(S(=O)(=O)N2CCC(C(=O)Nc3cccnc3)CC2)cc1	-8.7	-7.2	.	4.8	2.2	-2.2	2.8	-3.3	0.5	0.0
NC(=O)c1oc2ccccc2c1NC(=O)c1ccc([N+](=O)[O-])o1	3.4	34.8	.	-14.4	5.6	-3.0	4.2	53.6	31.9	0.5
Cc1c(C(=O)Nc2ccc(F)cc2)oc2ccc(S(=O)(=O)N3CCC4(CC3)OCCO4)cc12	.	5.5	-4.2%&-1.6%	.	.	.	4.5	-11.8	-2.2	0.2
COc1ccc(CN2CCNC(=O)C2CC(=O)NC2CCCC2)cc1OC (stereo unspecified)	0.9	-3.9	57.5%	12.8	12.8	3.9	-1.0	1.6	1.4	-0.4
CCCCOC(=O)c1ccc(NC(=O)c2ocnc2C)cc1	1.7	8.4	-5.7%	-2.0	5.1	3.9	?	22.4	-20.9	0.5
O=C(NCCCN1CCCC1=O)C1CCN(S(=O)(=O)c2ccc(Cl)cc2)CC1	0.8	-2.9	-3.1%	15.0	3.7	1.3	.	.	.	0.2
O=C(CCc1ccccc1Cl)Nc1ccc(S(=O)(=O)N2CCOCC2)cc1	-12.4	-0.3	5.8%	4.7	7.5	2.2	.	8.6	28.6	0.5
CCOC(=O)c1ccccc1NS(=O)(=O)c1cnn(CC)c1C	-0.3	-0.9	.	6.9	1.0	-1.5	.	.	4.5	0.5
Cc1ccc(OCCNC(=O)CCNC(=O)c2ccc(Cl)cc2)cc1	1.5	-3.2	-8.7%	.	.	.	.	.	.	0.6
O=C1OC(c2cccs2)=N/C1=C\c1ccc(-c2cccc(Cl)c2)o1	.	1.5	13.7%	.	.	.	5.3	2.5	-8.6	-0.6
O=C(CCCCCCCCCCC(=O)NCc1cccnc1)NCc1cccnc1	-11.1	112.1*	-9.7%	18.4	22.7	3.5	-2.5	5.5	-35.7	0.5
COc1ccc(-n2nc(C(=O)NCC(=O)N3CCN(c4ccccc4)CC3)c3ccccc3c2=O)cc1OC	-1.5	3.7	.	-2.7	-5.8	-0.8	2.2	32.8	12.2	-0.6
CNC(=O)COC(=O)c1cc(-c2ccccc2)nn1-c1ccccc1	1.8	-4.7	4.8%	-27.1*	-20.6*	0.8*	-0.7	-5.6	-1.0	0.0
Cn1c(SCC(=O)NCc2ccco2)nnc1-c1ccccc1	.	1.5	?	.	.	.	4.9	0.7	2.7	-1.0
CCOC(CC(=O)NNC(=O)c1c(-c2ccccc2Cl)noc1C)OCC	-4.0	-9.2	1.1%	3.3	-1.0	0.6	6.4	1.9	-18.8	-0.3
COc1ccc(C(=O)Nc2ccc(Cl)c(Cl)c2)c(OC)n1	.	6.8	-5.6%	.	.	.	-1.0	-10.7	5.1	-4.3
CCc1cccc(CC)c1N(COC)C(=O)Cn1c(C(C)O)nc2ccccc21 (stereo unspecified)	.	-2.9	-5.0%	.	.	.	-0.7	1.2	21.2	-0.2
NC(=O)c1cc([N+](=O)[O-])ccc1Nc1ccccc1	1.2	-3.5	.	11.8	8.1	-6.9	.	.	.	0.4
CSCCC(NC(=O)COc1ccccc1)C(=O)N1CCOCC1 (stereo unspecified)	-0.4	-2.6	4.1%	9.5	10.1	-2.8	.	.	.	0.8
Cc1[nH]c(=O)c(C(=O)/C=C/c2ccccc2)c2c1CCCC2	.	34.1	-7.4%	.	.	.	-1.0	-8.7	7.5	0.8
O=C(O)CSc1nnc(Cc2ccccc2)n1Cc1ccccc1	.	1.9	3.0%	.	.	.	2.6	-2.2	-1.1	1.1
CC1CC(=O)Nc2ccccc2N1C(=O)Cn1cnc2ccccc2c1=O (stereo unspecified)	-3.0	1.4	0.9%	2.4	0.0	-0.3	.	.	.	-1.3

Some of these compounds in order of heavy-atom count, high to low:
SMILES	AF4-AF9 inh	Beta cell apopt	Vif TR-FRET	Ecoli rRNA inh	Ecoli rRNA inh OD600	Ecoli rRNA inh RFP	RanGTP-Impb inh	Calb FLC	T cruzi inh	A1 inh
COc1ccc(-n2nc(C(=O)NCC(=O)N3CCN(c4ccccc4)CC3)c3ccccc3c2=O)cc1OC	-1.5	3.7	.	-2.7	-5.8	-0.8	2.2	32.8	12.2	-0.6
CCc1cccc(CC)c1N(COC)C(=O)Cn1c(C(C)O)nc2ccccc21 (stereo unspecified)	.	-2.9	-5.0%	.	.	.	-0.7	1.2	21.2	-0.2
CCOC(CC(=O)NNC(=O)c1c(-c2ccccc2Cl)noc1C)OCC	-4.0	-9.2	1.1%	3.3	-1.0	0.6	6.4	1.9	-18.8	-0.3
CNC(=O)COC(=O)c1cc(-c2ccccc2)nn1-c1ccccc1	1.8	-4.7	4.8%	-27.1*	-20.6*	0.8*	-0.7	-5.6	-1.0	0.0
O=C(O)CSc1nnc(Cc2ccccc2)n1Cc1ccccc1	.	1.9	3.0%	.	.	.	2.6	-2.2	-1.1	1.1
Cn1c(SCC(=O)NCc2ccco2)nnc1-c1ccccc1	.	1.5	?	.	.	.	4.9	0.7	2.7	-1.0
Cc1[nH]c(=O)c(C(=O)/C=C/c2ccccc2)c2c1CCCC2	.	34.1	-7.4%	.	.	.	-1.0	-8.7	7.5	0.8
COc1ccc(C(=O)Nc2ccc(Cl)c(Cl)c2)c(OC)n1	.	6.8	-5.6%	.	.	.	-1.0	-10.7	5.1	-4.3
NC(=O)c1cc([N+](=O)[O-])ccc1Nc1ccccc1	1.2	-3.5	.	11.8	8.1	-6.9	.	.	.	0.4

Next part
SMILES	AF4-AF9 inh	Beta cell apopt	Vif TR-FRET	Ecoli rRNA inh	Ecoli rRNA inh OD600	Ecoli rRNA inh RFP	RanGTP-Impb inh	Calb FLC	T cruzi inh	A1 inh
O=C(NCCCN1CCCC1=O)c1cccnc1	.	4.1	-4.6%	.	.	.	-0.8	7.4	-2.8	1.9
CS(=O)(=O)N(CC(=O)N1CCC(C(N)=O)CC1)c1ccc(Cl)c(C(F)(F)F)c1	.	-5.3	-0.1%	.	.	.	-3.0	-7.8	-4.0	0.2
COc1cc(CNn2c(C)n[nH]c2=S)cc(Cl)c1OCc1ccc(F)cc1	.	.	8.0%	.	.	.	3.0	27.0	9.6	-0.7
CCCN1C(=O)c2cccc3c(N4CCCCC4)ccc(c23)C1=O	.	-6.9	.	.	.	.	-179.4	8.1	-4.8	1.2
Cn1c(=O)cc(OCCCC(=O)Nc2cccnc2)c2ccccc21	.	-4.9	-0.1%	.	.	.	-2.4	110.9*	-3.6	0.4
O=C(O)CNC(=O)c1ccc(Oc2c(F)c(F)c(Oc3ccc(C(=O)NCC(=O)O)cc3)c(F)c2F)cc1	-13.7	-6.2	.	5.2	3.3	-1.1	3.4	3.8	-6.2	-0.3
Cc1ccc(NC(=O)c2cc(S(=O)(=O)N3CCC4(CC3)OCCO4)ccc2F)cc1	.	-4.3	6.7%&3.5%	.	.	.	-0.3	-5.6	2.3	0.1
Cc1cc(N2CCC(C(=O)Nc3ccc(F)cc3)CC2)nc(-c2ccccc2)n1	.	-3.7	0.5%	.	.	.	-0.5	2.0	-14.9	0.4

High-throughput results deposited in PubChem BioAssay by several laboratories.
